Ecoli growth – E. coli growth inhibition, primary screen, OD600; Escherichia coli growth, 23 h; stronger effect = lower value; actives 0.21% (n = 330,000); OD600 absorbance (concentration not given with the values);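 active means OD600 absorbance below the run mean of sample wells minus 3.6 SD, in any replicate, cut at about 0.56 in these data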;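 further: stock transfer was 300 nL into about 60 µL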
HNF4A DNA FP – change in binding of human HNF4A to DNA, primary screen, biochemical, fluorescence polarization, FITC-DNA. Hepatocyte nuclear factor 4-alpha (Homo sapiens), P41235. 1 h. activity change, % at 10 µM. actives 0.3% (n = 360,000); in the data active means activity change above about 30%, passing the limit was not always enough;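 further: controls were the assay level and a saturating level of protein; the project sought stronger binding though the title names inhibitors; some compounds called inactive have numbers as strong as hits; positive values seem to mean higher polarization but the record does not say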
Bfl-1 A1 inh – caspase 3/7 activation in MEF A1-2A-BIM cells, primary screen, A1 inhibitor project, cell-based, luminescence, HTS; actives 0.066% (n = 330,000); AID 2462, 2010; caspase activation, % (test concentration not listed); Caspase-Glo 3/7 luminescence, 3 h; percent of clofoctol response, vehicle zero;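 active means over half of replicate activation scores above 10%, or exactly half above 10 with the replicate mean above 10; inconclusive means replicate mean below 10 yet half the replicates above 10; inactive means over half of replicates below 10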;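 further: wells of about 30 µL received 50 nL stock; many hits fall short of the cut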
Vif A3G – inhibitors of Vif binding to APOBEC3G peptide, primary screen, biochemical, TR-FRET, GST-Vif 1-94, biotin-A3G peptide, dose response retest (AID 1117319) | Virion infectivity factor (Human immunodeficiency virus type 1 group M subtype B (isolate … | TR-FRET GST-Vif / biotin-A3G peptide binding; higher % means a stronger effect; test concentration not given here; strong numbers were not always called active | inhibition, %; hits with a dose series show IC50 in µM | actives 0.57% (n = 260,000);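 active means above the screen mean plus three standard deviations and confirmed in dose response; inconclusive means results disagree or hit not tested in dose response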;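 further: Vif residues 1-94 fused to GST binding biotinylated APOBEC3G peptide 110-148; 0% = full assay without inhibitor and 100% = GST in place of GST-Vif; retest series ran down from 100 µM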
B2AR ag – beta2AR agonists driving receptor internalization, primary screen, cell-based, FAP fluorogen, flow cytometry; Beta-2 adrenergic receptor (Homo sapiens), P07550; Am2.2-beta2AR cells; reference of the scale not given here; response, % (concentration not given with the values); actives 0.43% (n = 340,000); AID 504454, 2011;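 active means response above a set limit, near 3 SD of response in nonfluorescent compounds, cut at about 42% in these data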;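 further: stock transfer was 100 nL into about 11 µL; a reference agonist was the positive control; negative values mostly stem from fluorescent compounds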
LANA-H2B inh – blockers of LANA interaction with H2A/H2B – biochemical, FP readout, HTS, primary screen; Protein LANA1 (Human herpesvirus 8 type P (isolate GK18)), Q9QR71; cell-free LANA-H2A/H2B peptide, fluorescence polarization; inhibition, % (test concentration not listed); actives 0.6% (n = 320,000); AID 2629, 2010; in the data active means inhibition mostly above about 10%, no sharp cut-off; inactive means mostly below about 6.7%;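 further: stock transfer was 7.5 nL into about 10 µL; 0% = median of vehicle wells and 100% = median of positive control wells; one replicate is shown; the record names a cut of 25% in any replicate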
Target sequence (Q9QR71 whole entry, looked up): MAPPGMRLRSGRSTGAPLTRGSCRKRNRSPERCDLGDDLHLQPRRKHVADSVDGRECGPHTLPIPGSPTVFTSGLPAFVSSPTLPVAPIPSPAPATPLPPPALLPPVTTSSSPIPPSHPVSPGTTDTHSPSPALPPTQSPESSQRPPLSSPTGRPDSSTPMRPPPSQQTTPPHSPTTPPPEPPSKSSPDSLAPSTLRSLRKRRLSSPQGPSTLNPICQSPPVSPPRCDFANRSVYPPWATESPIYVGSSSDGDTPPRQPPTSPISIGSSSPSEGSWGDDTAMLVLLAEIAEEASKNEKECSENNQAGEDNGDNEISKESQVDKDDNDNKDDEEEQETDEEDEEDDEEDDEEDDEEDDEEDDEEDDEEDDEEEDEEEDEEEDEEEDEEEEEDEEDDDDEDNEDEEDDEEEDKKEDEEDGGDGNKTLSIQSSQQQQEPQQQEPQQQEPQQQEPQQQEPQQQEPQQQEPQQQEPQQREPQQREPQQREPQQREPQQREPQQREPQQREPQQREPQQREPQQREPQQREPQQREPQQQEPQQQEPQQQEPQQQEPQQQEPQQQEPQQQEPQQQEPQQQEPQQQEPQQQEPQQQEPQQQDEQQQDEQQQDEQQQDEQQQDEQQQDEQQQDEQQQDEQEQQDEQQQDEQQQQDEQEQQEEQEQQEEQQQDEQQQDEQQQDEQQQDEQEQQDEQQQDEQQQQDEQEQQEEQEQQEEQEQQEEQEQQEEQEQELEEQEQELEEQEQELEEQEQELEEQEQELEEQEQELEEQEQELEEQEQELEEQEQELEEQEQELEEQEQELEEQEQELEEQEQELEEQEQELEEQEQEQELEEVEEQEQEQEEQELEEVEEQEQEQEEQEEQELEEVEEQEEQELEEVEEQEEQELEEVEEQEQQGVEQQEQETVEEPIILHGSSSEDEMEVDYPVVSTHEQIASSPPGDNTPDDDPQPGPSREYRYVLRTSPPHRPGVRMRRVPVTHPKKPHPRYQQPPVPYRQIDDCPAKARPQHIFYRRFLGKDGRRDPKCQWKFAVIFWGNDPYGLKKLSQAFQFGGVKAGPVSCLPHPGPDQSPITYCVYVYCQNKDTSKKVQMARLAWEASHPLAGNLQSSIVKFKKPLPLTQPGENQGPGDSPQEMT
UCH37 inh – inhibitors of human UCH37 deubiquitinase, primary screen, biochemical, Ub-AMC cleavage, fluorescence; purified proteasome/UCH37; Ubiquitin carboxyl-terminal hydrolase isozyme L5 (Homo sapiens), Q9Y5K5; inhibition, % (concentration not given with the values); actives 0.33% (n = 330,000);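 active means mean of two replicates above 20%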;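 further: 0% = compound-free wells with enzyme and 100% = wells lacking proteasome; stock transfer was 100 nL into about 20 µL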
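system = Proteasome-associated human UCH37 deubiquitinase | amount = 0.15 nM proteasome as dispensed | medium = pH 7.4 Tris-HCl (50 mM) with ovalbumin, ATP-MgCl2, DTT | incubation = 30 min preincubation with enzyme, 25 min cleavage at room temperature | detection = AMC fluorescence 355/460 nm | read-out basis = percent inhibition | controls = no-proteasome and no-compound wells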
* hit, by the source's call; ? = inconclusive; · = no result given.

SMILES	Ecoli growth	HNF4A DNA FP	Bfl-1 A1 inh	Vif A3G	B2AR ag	LANA-H2B inh	UCH37 inh
COc1ccc(CNC(=O)CCSc2nc(-c3ccc4c(c3)OCO4)cc(C(F)(F)F)n2)cc1	0.76	-0.6	0.0	-6%	39	0.0	-172
COc1ccc(C(=O)OCC(=O)Nc2cc(C)on2)c(OC)c1OC	0.67	-0.9	2.1	·	1	0.3	0.6
COc1ccc(NC(=S)NCCCCCC(=O)C[N+](=O)[O-])cc1	0.75	-4.0	-0.2	·	-10	-2.2	9.6
Nc1ccccc1-c1nnn(CC(=O)Nc2ccc3c(c2)OCCO3)n1	0.66	2.3	·	·	2	·	0.2
Cc1nn(-c2nnc(C)c(=O)[nH]2)c(C)c1SCC(=O)Nc1ccc(F)cc1	0.75	-0.1	0.6	5%	10	3.3	-0.8
CC1CCc2sc(C(=O)NCC(c3ccco3)N3CCCCC3)cc2C1 (stereo not drawn)	0.65	0.4	-0.2	-3%	15	-3.0	0.6
CCSc1nnc(NC(=O)C2C3C=CC(C3)C2C(=O)O)s1 (stereo not drawn)	0.7	0.2	1.4	?	-1	-1.2	-0.7
C=CCn1cnc2scc(-c3ccc(OC)cc3)c2c1=O	0.68	3.9	1.5	·	-6	-4.6	1.0
CCOc1ccc(NC(=O)c2ccccc2OCC(=O)c2ccc(C)cc2)cc1	0.76	1.2	-0.4	4%	1	-5.2	3.0
Cn1c(C(=O)OCC(=O)NCc2ccc(F)cc2)cc2occc21	0.66	5.1	-0.5	1%	-8	·	-3.7
CCOC(=O)N1CCN(c2ncnc3nc[nH]c23)CC1	0.71	1.1	-0.8	7%	-16	3.6	4.0
CN(CCNC(=O)c1ccc(CS(=O)(=O)c2ccc(Br)cc2)o1)CCc1ccccc1	0.7	3.4	0.7	·	-19	19*	0.1
COc1cccc(C(=O)N(Cc2nc(-c3cccc(C)c3)no2)C(C)C)c1OC	0.79	1.2	-0.9	-2%	7	3.3	1.7
COc1ccc2ccccc2c1CNCc1ccccn1	0.67	0.5	0.7	0%	-9	-5.1	4.0
CC1=C(C#N)C(NC(=O)C(C)(C)C)(C(F)(F)F)C(=O)N1 (stereo not drawn)	0.7	1.2	0.8	?	-4	-3.3	4.2
O=C(NCc1cccc(C(F)(F)F)c1)C1CC2Cn3c(nc4ccccc43)C2N1Cc1ccccc1 (stereo not drawn)	0.72	-0.1	0.8	·	-10	-0.1	4.5
Cc1ccccc1Nc1nc(N)nc(CSCc2c(C)noc2C)n1	0.72	1.3	0.1	-2%	-8	5.1	0.2
CC(C)(C)c1ccc(-c2c(C#N)c(N)nc3c2CCCC3)s1	0.71	-1.9	0.1	-1%	3	2.5	-39
CC(=O)N1c2ccccc2C(C)CC12CCCCC2 (stereo not drawn)	0.75	1.6	2.3	22%	-11	-5.1	1.4
O=C(O)/C=C\C(=O)Nc1ccccc1C#Cc1ccccc1	0.73	-4.0	0.4	11%	9	-0.3	-1.8
Cc1cc(=O)cc(C)n1-c1ccccc1Br	0.67	1.9	0.9	-3%	-5	0.2	6.3
O=C(NNc1c2ccccc2nc2ccccc12)c1ccc(O)cc1O	0.71	2.5	-0.5	9%	19	0.9	-8.0
Cc1cc(Br)cc2c1NC(=O)C2(O)CC(=O)c1ccco1 (stereo not drawn)	0.69	-4.2	0.8	9%	-6	0.0	4.3
Cc1cc(CNC(=S)Nc2cccc(Cl)c2Cl)nn1C	0.68	-3.6	1.2	2%	14	-4.0	1.1
O=C(NCc1ccccc1)NC(=O)c1ccccc1	0.76	-3.1	0.7	-3%	-11	-5.3	0.4

An excerpt from above with just UCH37 inh:
Molecule	UCH37 inh
CN(CCNC(=O)c1ccc(CS(=O)(=O)c2ccc(Br)cc2)o1)CCc1ccccc1	0.1
CC1=C(C#N)C(NC(=O)C(C)(C)C)(C(F)(F)F)C(=O)N1 (stereo not drawn)	4.2
COc1ccc(CNC(=O)CCSc2nc(-c3ccc4c(c3)OCO4)cc(C(F)(F)F)n2)cc1	-172

Continuation:
SMILES	Ecoli growth	HNF4A DNA FP	Bfl-1 A1 inh	Vif A3G	B2AR ag	LANA-H2B inh	UCH37 inh
O=C(NCC(=O)N1CCN(c2ccccc2)CC1)c1ccc(Cl)cc1	0.69	2.4	-0.9	1%	-2	0.0	4.4
O=C(COc1coc(CN2CCN(c3ccccc3)CC2)cc1=O)N1CCc2ccccc21	0.63	1.4	-0.4	-2%	3	7.4	2.2
CS(=O)(=O)Cc1cc(N2CCCC2)nc(-c2ccccc2)n1	0.66	-2.4	-0.9	·	-13	2.0	-0.8
CCOC(=O)C1=C(CC)Nc2ccccc2N/C1=N\S(=O)(=O)c1ccccc1OC	0.64	-1.5	0.3	4%	11	·	1.1
CCN(CC)c1ccc(CN(C(=O)c2cccs2)C2CCS(=O)(=O)C2)cc1 (stereo not drawn)	0.69	-0.7	0.4	1%	3	-3.7	0.5
O=C(CNS(=O)(=O)c1ccc(F)cc1)N1CCOCC1	0.66	1.1	0.2	·	2	-1.7	2.1
COC(=O)C1(C#N)C(c2ccccc2)C1(C(=O)OC)C(=O)OC (stereo not drawn)	0.73	-0.7	0.1	0%	-6	0.6	-2.2
Cc1ccc(CSCC(=O)N(C)CC(=O)Nc2ccc(Cl)c(Cl)c2)cc1	0.71	1.1	2.1	-9%	2	5.4	-0.6
CCOP(=O)(c1ccc(N(C)C)cc1)C(O)c1ccccc1F (stereo not drawn)	0.69	3.0	0.3	-9%	-38	1.3	-0.3
COc1ccccc1NC(=S)N(Cc1ccco1)Cc1cc2ccc(C)c(C)c2[nH]c1=O	·	2.4	0.7	·	22	0.8	0.5
O=S(=O)(c1ccccc1)N1CCN(C(=S)NCc2ccccc2)CC1	0.71	0.1	0.7	16%	-3	-2.1	1.2
Cc1ccc(S(=O)(=O)N2CCC(NC(=O)c3ccccc3)CC2)cc1	0.69	3.6	1.2	5%	3	·	0.3
Cc1ccc(S(=O)(=O)N(C)Cc2ccc(C(=O)N/N=C/c3ccc(OC(F)F)cc3)cc2)cc1	·	-0.1	3.5	-1%	2	-2.0	·
C/C(=N\NC(=O)c1ccccc1C)c1cccnc1	·	0.5	-0.2	1%	8	-1.1	·
COc1cccc(Cn2cnc3c(sc4nc(C)cc(C)c43)c2=O)c1	0.71	0.1	-1.0	·	-1	1.5	-1.1
Oc1c(C=C2N=c3ccccc3=N2)sc(=S)n1-c1ccc2ccccc2c1	0.76	3.8	-0.8	?	-5	1.6	8.7
O=C(N[C@H]1CCC(=O)N([C@H](CSc2ccccc2)Cc2ccccc2)CC1)OCc1ccccc1	·	-5.3	0.3	·	-5	-2.8	1.3
N#C/C(=N\Nc1cccc(F)c1)C(=N)N1CCCCCC1	·	3.1	-2.2	10%	-3	-0.9	·
O=C(/C=C/c1ccccc1[N+](=O)[O-])NCc1cccnc1	0.72	-1.4	1.3	·	-6	2.4	3.8
Cc1ccc(S(=O)(=O)N2CCC(C(=O)Nc3nnc(-c4ccco4)s3)CC2)cc1	0.69	4.5	-0.1	69%	8	-1.1	0.2
CSc1nsc(SC)c1NC(=O)OC1CCCCC1	0.63	-0.6	0.7	5%	-12	-9.4	4.9
COc1ccc(C(=O)N2CCN(S(=O)(=O)c3ccc(C)cc3)CC2)cc1S(=O)(=O)N1CCOCC1	0.68	2.2	-0.8	·	-3	-1.3	1.1
CCc1nnc(NS(=O)(=O)c2ccc(NC(=O)/C=C/c3ccc(OC)cc3OC)cc2)s1	0.65	0.5	-3.1	0%	14	3.7	-11
Cc1cnc(C(=O)OC(C)C(=O)c2c(C)[nH]c3ccccc23)cn1 (stereo not drawn)	0.69	-0.4	-0.8	2%	0	1.0	4.9
O=[N+]([O-])c1ncn(Cc2ccccc2Cl)n1	0.69	1.7	-0.2	-3%	1	-12	4.7

Next section:
SMILES	Ecoli growth	HNF4A DNA FP	Bfl-1 A1 inh	Vif A3G	B2AR ag	LANA-H2B inh	UCH37 inh
COc1ccc(C2C3=C(CC(C)(C)CC3=O)Oc3ncn(CCO)c(=N)c32)cc1OC (stereo not drawn)	0.66	0.3	0.1	5%	2	1.1	2.1
COc1cccc(CNCCO)c1OCc1ccccc1	0.65	-3.6	-0.9	21%	3	-1.8	-0.9
CC1=C(C(=O)OCc2ccccc2)C(c2cccc([N+](=O)[O-])c2)NC(=O)N1CCCCCC(=O)O (stereo not drawn)	0.66	-6.3	1.4	12%	2	2.7	1.9
CCc1ccc(NC(=O)C(C)Sc2nc(-c3ccco3)c(C#N)c(=O)[nH]2)cc1 (stereo not drawn)	0.67	2.3	0.8	·	2	-6.2	8.8
Cc1cccc(N=C2NC(=O)/C(=C/c3cccnc3)S2)c1	0.62	2.2	-0.1	·	8	4.1	9.4
COC(=O)c1ccc2c(=O)[nH]c(COC(=O)c3c(-c4ccccc4Cl)noc3C)nc2c1	0.68	-1.9	-0.3	-1%	4	-2.1	-0.4
C=CCNC(=O)C1CCN(S(=O)(=O)CC)CC1	0.69	1.4	1.0	4%	3	-1.8	1.4
CCOc1ccc(NC(=O)COc2ccc3c(c2)CCC3)cc1OC	0.7	3.5	-0.1	8%	-8	-4.3	4.0
CCOC(=O)c1c(-c2ccccc2)csc1NC(=O)c1ccc(N2C(=O)CCC2=O)cc1	0.7	-4.9	0.2	-3%	14	-0.2	-203
COc1cc(C(=O)Nc2cccc(NC(=O)c3ccccc3)c2)cc(OC)c1OC	0.71	-0.3	0.5	·	7	2.9	3.6
CCOC(=O)c1c(C)c(-c2ccccc2)n(CC(=O)NCCCN(CC)CC)c1C	0.7	2.3	-0.7	13%	1	2.9	2.1
CC(C)c1ccc(/C=C2\NC(=O)NC2=O)cc1	0.68	0.1	-1.0	·	4	0.6	6.3
NC(=O)CCCSc1nc2ccccc2[nH]1	0.69	2.3	0.1	0%	2	0.6	3.3
COc1ccc(C(=O)Nc2ccccc2C(=O)Nc2cccc(C)n2)cc1	0.68	0.9	-4.8	-7%	-2	-1.3	-2.2
O=C(NC1CCCCC1)Oc1ccccc1	0.66	-3.9	0.1	·	-5	-5.2	3.5
Cc1nnc(SCCCN2C(=O)c3ccccc3C2=O)o1	0.74	1.8	-0.9	-1%	-3	-1.4	1.3
Cc1ccc(NC(=O)c2cccc(OCc3c(C)noc3C)c2)c(C)c1	0.63	-1.4	0.0	-1%	11	-8.1	2.6
CC1CN(CCc2ccccc2)C(C)C/C1=N/O (stereo not drawn)	·	0.2	-0.4	·	1	-0.8	·
COc1ccc(-c2csc(NC(=S)NC(=O)/C=C/c3ccc(C(C)C)cc3)n2)cc1OC	0.74	-0.4	0.5	·	7	4.0	9.8
Cc1cc(C(=O)N/N=C/c2cccc3ccccc23)c(C)o1	·	0.1	-0.5	·	3	-3.0	·
Cc1cc(OCC(=O)NCCCN2CCOCC2)c2c(C)cc(=O)oc2c1	0.69	-4.5	0.1	·	-2	-1.7	-126
CCOc1ccccc1NC(=O)NCc1ccccc1F	0.7	-1.1	-0.5	2%	4	-0.8	0.2
CCOc1ccc(-c2nonc2NC(=O)c2ccco2)cc1OCC	0.69	-0.3	0.4	-8%	-11	-0.6	2.2

Compound activity (PubChem)
